# TRPML1 agonist = activates the human TRPML1 channel; TRPML1-expressing cells, Ca2+ dye fluorescence, FDSS; host cell line not named in the record; reference of the full effect not given here; activation, % (test concentration not listed); 0.12% of 410,000 active; AID 624414; in the data active = activation above about 50%; inconclusive = about 30% to 50%; inactive = below about 30%; note: 0% is about no effect; the text of the record puts the active cut at 80%
# Target sequence (Q9GZU1 whole entry, looked up): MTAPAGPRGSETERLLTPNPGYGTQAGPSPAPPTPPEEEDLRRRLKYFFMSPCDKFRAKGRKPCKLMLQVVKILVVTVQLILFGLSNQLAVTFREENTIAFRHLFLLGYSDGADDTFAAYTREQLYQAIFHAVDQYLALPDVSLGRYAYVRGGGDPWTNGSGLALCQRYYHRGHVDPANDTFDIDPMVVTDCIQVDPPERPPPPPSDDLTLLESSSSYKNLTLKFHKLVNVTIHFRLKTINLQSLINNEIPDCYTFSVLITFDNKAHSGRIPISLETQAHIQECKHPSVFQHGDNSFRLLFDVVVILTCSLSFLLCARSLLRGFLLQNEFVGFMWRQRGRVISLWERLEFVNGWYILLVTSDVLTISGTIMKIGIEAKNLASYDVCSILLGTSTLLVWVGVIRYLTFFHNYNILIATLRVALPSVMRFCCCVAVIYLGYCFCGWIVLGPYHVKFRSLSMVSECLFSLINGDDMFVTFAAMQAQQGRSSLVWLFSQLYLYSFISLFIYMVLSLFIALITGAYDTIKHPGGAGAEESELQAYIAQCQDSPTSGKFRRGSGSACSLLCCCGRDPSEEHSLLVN
#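 Kinetic FDSS Ca2+ read in Tet-induced TRPML1-DL cells (ABD Ca8 dye plus quencher, 45-90 min RT loading): baseline, then compound, then 110 s agonist window; EC80 agonist 54-4 at 4uM final added afterwards for a 110 s antagonist window.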
# Six1-Eya2 blk = inhibitors of human Six1/Eya2 interaction | Q15475+O00167 | AlphaScreen GST-Six1/His-Eya2 binding, biochemical; active compounds read low; control for the full effect not named in the record | activity change, % (concentration not given with the values) | 0.56% of 360,000 active | AID 651725; in the data active = activity change below about -65%; inconclusive = about -30% to -65%; inactive = above about -30%; note: % is set by controls: 0 for no effect and ±100 for the full control effect
#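 Compounds are tested against tagged Six1 and Eya2 proteins bridged by glutathione donor and nickel acceptor beads; after a one-hour incubation at 37 °C without light, AlphaScreen emission is recorded.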
# D2 potentiator = positive allosteric modulators of human D2 dopamine receptor; P14416; DiscoveRx D2 beta-arrestin cells, luminescence, 90 min; 100% = 57 uM dopamine signal; potentiation, % (concentration not given with the values); 0.23% of 360,000 active; AID 624464; active = potentiation of 50% or more; inconclusive = 30% to 50%; inactive = 30% or less;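 note: compound concentration not given in the record; tested on top of an EC20 dose of dopamine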
# Target sequence (P14416 whole entry, looked up): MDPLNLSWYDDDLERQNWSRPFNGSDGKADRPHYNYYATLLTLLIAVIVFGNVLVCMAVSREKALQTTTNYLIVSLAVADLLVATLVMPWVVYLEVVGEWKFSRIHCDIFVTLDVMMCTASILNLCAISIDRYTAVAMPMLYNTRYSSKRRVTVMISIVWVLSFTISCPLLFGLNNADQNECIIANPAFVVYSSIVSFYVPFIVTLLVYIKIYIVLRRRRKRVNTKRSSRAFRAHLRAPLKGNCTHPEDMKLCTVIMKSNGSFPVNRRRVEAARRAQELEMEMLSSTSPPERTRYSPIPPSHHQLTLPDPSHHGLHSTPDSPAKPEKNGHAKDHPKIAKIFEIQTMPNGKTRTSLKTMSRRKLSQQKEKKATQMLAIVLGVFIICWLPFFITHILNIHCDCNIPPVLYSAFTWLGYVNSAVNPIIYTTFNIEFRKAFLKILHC
#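 D2 cells co-treated with compound plus 50 nM dopamine (EC20) for 90 min at 37 deg C to detect potentiation. Beta-arrestin recruitment was read as enzyme-fragment luminescence after 1 h at ambient temperature. Full response was set by 57 uM dopamine.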
# PINK1 expr mod = PINK1 expression modulation; PINK1 immunofluorescence, high-content cytometry, 24 h; Potency, µM (highest dose often 76.6 µM), for inactives: at the top dose activation (PINK1 increase), usual class: activators; 0.2% of 410,000 active; active = well fitted activation curve with a large enough effect; inconclusive = small, poorly fitted or top-dose-only effect; inactive = flat fitted curve, though single readings scatter; cell line not stated here;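 note: potency is the fitted concentration of half-maximal effect; % of control where 0% means no effect; nearly all actives have a fitted effect of over 65% in size; a mitochondrial uncoupler was the plate control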
#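 Stable cell line, 250 cells/well, 12 h attachment; compounds pinned at 5 concentrations, 24 h; CCCP control. Fixed with nuclear dye, primary antibodies 12 h at 10 degrees C, secondary plus cell stain; laser-scanning cytometer read.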
# TRPML1 blocker = blocks the human TRPML1 channel; TRPML1-inducible cells, Ca2+ dye fluorescence, FDSS; active compounds read low; inhibition of EC80 agonist-evoked calcium signal; AID 624415; Q9GZU1; activity change, negative = inhibition, % (no concentration beside the values); 0.02% of 390,000 active; in the data active means activity change below about -50%; inconclusive means about -30% to -50%; inactive means above about -30%;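 note: stimulus is agonist 54-4 at its EC80 concentration; % is set by controls: 0 for no effect and ±100 for the full control effect; compound concentration not given in the record; the text of the record puts the active cut at -80%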
#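 Calcium fluorescence in TRPML1-DL cells induced overnight with Tet: a 110 s read after compound pin addition, then a 110 s antagonist read after challenge with 54-4 at 4 uM final (EC80).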
# D2 agonist = human D2 receptor agonism in beta-arrestin assay; P14416; AID 624465; activation, % (concentration not given with the values); DiscoveRx PathHunter D2 beta-arrestin, luminescence, 90 min; 100% = 57 uM dopamine signal; 0.084% of 360,000 active; in the data active = activation above about 40%; inconclusive = about 15% to 40%; inactive = below about 15%; note: compound concentration not given in the record; the text of the record calls up to 30% inactive
#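 Agonist mode: compounds alone added to overnight-plated D2 PathHunter cells for 90 min at 37 C, with 57 uM final dopamine (EC100) defining full response. Beta-arrestin recruitment detected by chemiluminescent reagent, read after 1 h at ambient temperature.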
# An asterisk follows results filed as active; ? = inconclusive; · = no result given; & = joins results of further samples; [ ] = dose if it differs, or a comment.
SMILES,TRPML1 agonist,Six1-Eya2 blk,D2 potentiator,PINK1 expr mod,TRPML1 blocker,D2 agonist
CCc1noc(C)c1C(=O)N1CCN(S(=O)(=O)c2ccc(C)cc2C)CC1,-0.2,8,-9,2.8%,-14,1.4
CC1(C(=O)NCc2cccc3ccccc23)CCN1Cc1ccccc1OC(F)F (stereo unspecified),-0.6,-2,-16,?,·,-2.9
CC(C)Oc1ccc(S(=O)(=O)N2CCOCC2)cc1NC(=O)C1CSC2(C)CCC(=O)N12 (stereo unspecified),1.2,2,-20,-0.3%,5,0.3
O=C(Nc1cccc2ccccc12)c1nn(C23CC4CC(CC(C4)C2)C3)cc1[N+](=O)[O-],2.1,-19,-12,-1.8%[38.3 µM],67,1.0
COc1cc(C(=O)OCc2cc(=O)n3ccsc3n2)ccc1OC(C)C,-0.6,-4,-2,8.9%,1,-2.6
CC1(C)CC2(CCCN(C(=S)Nc3ccccc3)C2)CCO1 (stereo unspecified),0.5,7,-16,0.4%,27,0.4
O=C(COC(=O)/C=C/c1cccc(Cl)c1)Nc1c(F)cccc1F,-0.5,5,-10,0.1%,-1,-8.3
O=C(CSCc1ccccc1)Nc1cccc(C(=O)Nc2ccc(C(=O)O)cc2)c1,-1.1,9,9,0.7%,2,-2.6
COc1ccc(CNCc2ccncc2)cc1OC,0.0,0,-8,-0.6%,-4,-0.9
Cc1cc(NC(=O)CSc2cn(CCNC(=O)c3ccc(Cl)cc3)c3ccccc23)no1,1.7,-5,-3,3.5%,24,0.2
O=C(NCc1ccco1)C1CCN(S(=O)(=O)N2CCOCC2)CC1,0.5,2,1,-1.4%[38.3 µM],-16,1.9
COCCNC(=S)NNC(=O)c1ccco1,0.2,-2,-8,6.2%[38.3 µM],43,-0.8
Cc1ccc(S(=O)(=O)c2nnn3c2nc(N2CCCCC2)c2sccc23)cc1,0.4,·,·,2.6%,5,·
CC(C(=O)N1CCc2ccccc21)N1CCc2ccccc2C1 (stereo unspecified),-0.3,-7,-22,-0.7%,4,-4.3
Cc1ccc(S(=O)(=O)N2CCOC23CCN(C(=O)c2ccc(Cl)cc2Cl)CC3)cc1,-0.9,-8,-11,1.8%,-4,3.7
CC(=O)c1c(C)n(-c2ccccc2Br)c2ccc(O)cc12,2.1,10,-3,6.6%,-14,2.5
COc1cnc(SC(C)C)[nH]c1=O,0.5,-2,1,-1.2%,-1,-4.9
COc1ccc(C2CC(C(F)(F)F)n3nc(C(=O)NCc4cn(C)nc4C)c(Cl)c3N2)cc1 (stereo unspecified),-0.1,-5,-3,·,3,0.5
CC(C)[C@H](NC(=O)C1CCN(S(=O)(=O)c2ccccc2)CC1)C(=O)NCc1ccc(F)cc1,0.2,6,-11,0.6%,-8,-2.2
CCSc1ncc(Cl)c(C(=O)Nc2ccc(S(N)(=O)=O)cc2)n1,2.6,5,-5,2.0%,0,1.1
O=C(CNS(=O)(=O)c1ccc(Br)cc1)N1CCOCC1,0.0,2,-16,-0.5%,-1,-1.2
CC(C)(C)S(=O)N1Cc2cc(CO)cc(-c3ccccc3)c2[C@H]1CCO (stereo partly specified),-0.4,0,·,0.7%,2,-1.9
CCc1cc2ccc(OC)cc2nc1SCC(=O)N1CCN(C(=O)c2ccco2)CC1,2.1,-3,4,0.6%,-9,6.9
Cc1cc2nc(N)sc2cc1[N+](=O)[O-],0.1,5,-1,·,77,-4.4
CC(C)(C)OC(=O)CNC(=O)c1[nH]cnc1C(=O)NC(c1ccccc1)c1ccccc1,0.7,-22,-4,1.2%,23,-0.5
Oc1ccc(-c2cn3ccccc3n2)cc1O,-0.4,-9,9,0.9%,-4,?
CCOC(=O)C1=C(C)N(C)C(=S)NC1c1c(OCC)ccc2ccccc12 (stereo unspecified),2.2,-11,-1,2.6%,30,-2.7
CC(=O)c1ccc(N2CCN(S(=O)(=O)c3ccc(-c4cnc(C5CC5)o4)cc3)CC2)cc1,-0.7&-0.8,0,-5,-1.7%&1.0%,-11&-6,1.7
CCC(CC)C(=O)Nc1ccccc1C(=O)OCc1cc(=O)n2nc(C3CCCCC3)sc2n1,2.5,·,·,-1.2%,6,·
COc1ccc(C(=O)N/C(=C\c2cn(C)c3ccccc23)C(=O)N2CCN(C)CC2)cc1OC,0.4,1,-10,0.8%,-13,-1.5
O=C(NCCc1csc(-c2cccnc2)n1)c1ccco1,-0.4,-14,3,1.5%,-9,-4.9
CC(=O)Nc1cc(C)nn1-c1nc2ccccc2s1,-1.4,-2,7,5.2%,5,-5.8
O=C(COC(=O)CCCN1C(=O)c2cccc3cccc(c23)C1=O)Nc1ccc(Cl)cc1,3.9,-2,-6,0.0%,57,0.4
COc1cc(/C=C/C(=O)OC(C)C(=O)Nc2c(C)n(C)n(-c3ccccc3)c2=O)ccc1OCC#N (stereo unspecified),1.3,-10,4,-0.8%,-7,2.5
Cc1ccnc(NS(=O)(=O)c2ccc(NC(=O)Cc3c(F)cccc3Cl)cc2)n1,0.2,6,-4,0.9%,-5,-4.7
COc1ccc(N2CCN(C(=O)CSc3ccc([N+](=O)[O-])cc3)CC2)cc1,3.1,1,-2,14%,14,-4.6
O=C(CN1CCN(c2ncc(C(F)(F)F)cc2Cl)CC1)NC(=O)NCc1ccccc1,-0.4,1,-9,21%[38.3 µM],7,-2.9
CCSc1ccccc1C(=O)N1CCN(c2ccc([N+](=O)[O-])cc2)CC1,1.1,-9,-14,-0.8%,57,3.6
CN1CCN(S(=O)(=O)c2cccc(C(=O)N3CCN(c4ccccc4F)CC3)c2)CC1,0.5,-3,-2,1.4%,-1,-0.9
Cc1ccccc1-c1nc(CS(=O)CC(=O)NC(C)CCc2ccccc2)c(C)o1 (stereo unspecified),1.7,-7,-15,-0.1%,6,0.1
COC1CCN(C(=O)c2ccc(OC3CCN(Cc4ccccn4)CC3)cc2)CC1,0.1,-16,-3,1.3%,3,-1.3
CC(=O)c1cccc(NC(=O)C(C)OC(=O)c2cc(=O)[nH]c3ccccc23)c1 (stereo unspecified),1.3,-9,-27,-0.4%,-3,-1.1
O=C(Cn1nnc(-c2ccccc2F)n1)NCCc1ccccc1,-0.2,4,0,0.6%,27,0.9
CN(C)c1ccc(NC(=O)c2ccc3nc[nH]c3c2)cc1,3.8,-13,-7,2.3%,23,-2.5
C/C(CCC(=O)O)=N/Nc1ccc([N+](=O)[O-])cc1[N+](=O)[O-],2.0,-6,19,1.1%,20,5.3
CN1CCN(c2ccccc2NC(=O)COc2ccc(Cl)cc2)CC1,-0.3,-11,-31,0.2%,12,-1.4
COc1ccc2cc([C@H](C)C(=O)N(C)Cc3ccccc3N3CCCC3)ccc2c1,0.7,-25,-11,7.8%,12,-3.1
NS(=O)(=O)c1cccc(NC(=O)CSc2nc3ccccc3c(=O)n2Cc2ccco2)c1,0.0,-11,-5,-0.8%,-12,-2.2

# Reprinted from the part before: 2 entries; new compounds follow.
SMILES,TRPML1 agonist,Six1-Eya2 blk,D2 potentiator,PINK1 expr mod,TRPML1 blocker,D2 agonist
COc1ccc2cc([C@H](C)C(=O)N(C)Cc3ccccc3N3CCCC3)ccc2c1,0.7,-25,-11,7.8%,12,-3.1
NS(=O)(=O)c1cccc(NC(=O)CSc2nc3ccccc3c(=O)n2Cc2ccco2)c1,0.0,-11,-5,-0.8%,-12,-2.2
O=S(=O)(Nc1ccccn1)c1ccc(Oc2ccccc2)cc1,-1.1,-1,-1,0.2%,-7,-0.9
C=CCn1c(-c2ccc(S(=O)(=O)N3CCOCC3)cc2)csc1=Nc1ccccc1,-1.2,?,-13,-2.4%,13,0.4
CCOC(=O)CSc1nc2ccc(NC(=O)c3cccc(F)c3)cc2s1,2.5,·,·,2.7%,22,·
O=C(c1ccc(Cl)c(S(=O)(=O)N2CCCCC2)c1)N1CCCCCC1,1.7,3,-14,-0.3%,2,-2.6
COc1ccc(/C=C2/SC(=S)N(CCCC(=O)Nc3cccc(O)c3)C2=O)cc1,2.1,-24,-1,15%,2,2.5
COc1ccccc1NC(=O)N(Cc1ccco1)Cc1cc2cc(C)cc(C)c2[nH]c1=O,1.3,-18,-10,1.1%,16,-7.8
CCCNC(=O)COCc1cc(-c2ccc(F)cc2)on1,0.9,·,·,-0.4%,23,·
Cc1nc(SCC(=O)NC(C)(C#N)C2CC2)c2c(-c3cccs3)csc2n1 (stereo unspecified),3.0,-5,-3,0.4%,19,4.2
C(=N/N1CCN(c2ccccc2)CC1)/c1cccs1,0.6,-26,-4,-1.5%[38.3 µM],-15,-0.3
Cc1cccc(C(=O)NNC(=O)c2n[nH]c(=O)c3ccccc23)c1C,1.1,15,3,3.0%,-5,-2.3
CCC(C)NC(=O)Cn1c(=O)n(CCCCCC(=O)Nc2ccccc2)c(=O)c2sccc21 (stereo unspecified),0.3&1.6,8,-17,-1.0%&-0.6%,5&-3,-3.7
Cc1cc(C)c(NC(=O)CN2CCCCCC2)c(C)c1,4.3,2,-8,-3.3%,15,-0.8

# Record cards, as listed above. Values in the order: TRPML1 agonist, Six1-Eya2 blk, D2 potentiator, PINK1 expr mod, TRPML1 blocker, D2 agonist
# Entry for `CC(C)(C)S(=O)N1Cc2cc(CO)cc(-c3ccccc3)c2[C@H]1CCO` (stereo partly specified) : -0.4, 0, ·, 0.7%, 2, -1.9
# Entry for `O=C(Cn1nnc(-c2ccccc2F)n1)NCCc1ccccc1` : -0.2, 4, 0, 0.6%, 27, 0.9

# Later entries.
SMILES,TRPML1 agonist,Six1-Eya2 blk,D2 potentiator,PINK1 expr mod,TRPML1 blocker,D2 agonist
Cc1nn(Cc2ccc(Cl)cc2)c(=O)n1N(C)c1ncc(C(F)(F)F)cc1Cl,0.7,1,-8,-0.6%,-4,-2.1
CC1Cc2ccccc2N1C(=O)CSc1nnc(-c2cccc(Cl)c2)o1 (stereo unspecified),3.2,·,·,-1.0%,-4,·
CSCCC(NC(=O)c1ccco1)C(=O)NC1CCCCCC1 (stereo unspecified),-1.0,-5,20,2.6%,-8,-2.6
CCC(c1nnnn1-c1ccc2c(c1)OCCO2)N1CCN(CCN2CCOCC2)CC1 (stereo unspecified),-0.1,0,·,-0.8%,·,·
Cc1ccc(-c2nc(NC(=O)CSc3nnc(C)s3)ns2)cc1,0.9,-1,-4,-1.1%,-4,-3.0
CC(C(=O)N1CCN(C2c3ccccc3-c3ccccc32)CC1)N1C(=O)c2ccccc2C1=O (stereo unspecified),-0.6,-15,-5,4.8%,26,0.2
Cc1cc(=O)n(C(C)c2ccccc2)n1C(C)c1ccccc1 (stereo unspecified),0.7,7,-14,-1.7%,0,2.3
Cc1cccc(NC(=O)CSc2ccc(-c3ccccn3)nn2)c1C,0.5,-87*,-2,0.0%,22,-0.2
CCc1nc2ccc(C(=O)N3CCN(c4cc(C)ccc4C)CC3)cc2nc1CC,2.4&-0.2,-8,4,1.1%&2.1%,1&-6,7.3
CC(=O)Nc1ccc(SCCN2CC[C@@H](C(C)(C)C)CCC2=O)cc1,-0.5&-0.6,0,-6,3.3%,1,0.1
CCSc1nnc(NC(=O)c2cccc(S(=O)(=O)N(C)c3ccccc3)c2)s1,1.3,12,-10,-3.4%,-9,-2.0

# Screening results deposited in PubChem BioAssay by National Center for Advancing Translational Sciences (NCATS).

# The order is random (roughly 1% active in at least one column).
